OX1R antag-1 = blocks the human orexin 1 receptor; O43613; inhibition, % at 5 µM; 0.43% of 330,000 active; CHO/OX1R cells, Fluo-8 calcium fluorescence, orexin A; AID 434989;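 active = inhibition above its plate's threshold, mean inhibition of all tested compounds on the plate plus 3 SD, cut at about 37% in these data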;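 note: 0% = orexin A challenge wells and 100% = SB-334867-A antagonist wells; not every result past the cut was called active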
Target sequence (O43613 whole entry, looked up): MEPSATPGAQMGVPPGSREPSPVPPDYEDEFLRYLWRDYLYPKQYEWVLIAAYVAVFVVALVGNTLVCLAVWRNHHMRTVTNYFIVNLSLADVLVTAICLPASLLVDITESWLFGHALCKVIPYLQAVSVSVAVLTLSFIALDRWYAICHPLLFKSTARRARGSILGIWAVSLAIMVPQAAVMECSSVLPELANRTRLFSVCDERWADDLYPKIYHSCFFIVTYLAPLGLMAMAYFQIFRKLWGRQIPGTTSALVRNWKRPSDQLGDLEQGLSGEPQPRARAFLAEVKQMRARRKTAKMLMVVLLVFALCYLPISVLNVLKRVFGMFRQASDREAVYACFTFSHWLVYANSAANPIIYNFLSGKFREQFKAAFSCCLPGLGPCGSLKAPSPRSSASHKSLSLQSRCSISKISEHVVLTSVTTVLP
OX1R antag-2 = antagonists of human orexin 1 receptor (OX1R); O43613; OX1R-expressing cells, FRET antagonist read-out; inhibition, % at 6.6 µM; 1.8% of 330,000 active; AID 485270; in the data active = inhibition mostly above about 38%, no sharp cut-off; inactive = mostly below about 40%;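 note: 0% = agonist challenge alone and 100% = reference antagonist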
* hit, by the source's call. Only part of the results is shown; most or all hits stand in other tables.

The opening 6 entries, ahead of the listing:
`Cn1c(NC(=O)c2ccc(Cl)cc2)c(-c2ccccn2)c(=O)c2ccccc21` gave OX1R antag-1 -7 and OX1R antag-2 3.
C=CCOc1ccc(C2C(C(=O)c3ccco3)=C(O)C(=O)N2CCCN(CC)CC)cc1 (stereo not given) was read as OX1R antag-1 -14 and OX1R antag-2 9.
Screening CCOC(=O)C1(Cc2cccc(F)c2)CCN(Cc2cnn(CC)c2)CC1 returned OX1R antag-1 -29 and OX1R antag-2 14.
For CCCC(=O)Nc1ccccc1NC(=O)c1ccc(OC(C)=O)cc1 the results were OX1R antag-1 -12 and OX1R antag-2 11.
`COc1cccc(COC(=O)C2CC(=O)N(Cc3ccc(C)cc3)C2)c1OC` (stereo not given) gave OX1R antag-1 -18 and OX1R antag-2 28.
COc1ccccc1CNC(=O)Cn1cc2c(n1)CCCC2 was read as OX1R antag-1 0 and OX1R antag-2 6.

Results, previewed entries included:
`Cn1c(NC(=O)c2ccc(Cl)cc2)c(-c2ccccn2)c(=O)c2ccccc21` gave OX1R antag-1 -7 and OX1R antag-2 3.
C=CCOc1ccc(C2C(C(=O)c3ccco3)=C(O)C(=O)N2CCCN(CC)CC)cc1 (stereo not given) was read as OX1R antag-1 -14 and OX1R antag-2 9.
Screening CCOC(=O)C1(Cc2cccc(F)c2)CCN(Cc2cnn(CC)c2)CC1 returned OX1R antag-1 -29 and OX1R antag-2 14.
For CCCC(=O)Nc1ccccc1NC(=O)c1ccc(OC(C)=O)cc1 the results were OX1R antag-1 -12 and OX1R antag-2 11.
`COc1cccc(COC(=O)C2CC(=O)N(Cc3ccc(C)cc3)C2)c1OC` (stereo not given) gave OX1R antag-1 -18 and OX1R antag-2 28.
COc1ccccc1CNC(=O)Cn1cc2c(n1)CCCC2 was read as OX1R antag-1 0 and OX1R antag-2 6.
`CCOc1ccccc1C(c1c(O)nc(SC)[nH]c1=O)c1c(O)nc(SC)[nH]c1=O` gave OX1R antag-1 -10 and OX1R antag-2 5.
For COC(=O)c1sccc1NC(=S)N1CCCC(C)C1 (stereo not given) the results were OX1R antag-1 -20 and OX1R antag-2 12.
COCCOC(=O)C1=C(C)N=C2SCCC(=O)N2C1c1ccc(OC(=O)c2ccco2)cc1 (stereo not given) was read as OX1R antag-1 -29 and OX1R antag-2 15.
For COc1ccc(NC(=S)N2CCC(NC(=O)c3cccc(F)c3)CC2)cc1 the results were OX1R antag-1 -24 and OX1R antag-2 18.
For CC(C)Cc1nc(N2CCN(C(=O)c3ccccc3)CC2)c(C#N)c2c1CCC2 the results were OX1R antag-1 -19 and OX1R antag-2 16.
`Cc1ccc(N2CC(C(=O)Nc3nnc(SCC(N)=O)s3)CC2=O)cc1C` (stereo not given) gave OX1R antag-1 -8 and OX1R antag-2 16.
Screening CCc1ccccc1NC(=O)[C@@H]1CCC(=O)N1C1OC(=O)c2ccccc21 (stereo not given in full) returned OX1R antag-1 2 and OX1R antag-2 13.
Screening O=C(CSc1nccc(=O)[nH]1)N1CCOCC1 returned OX1R antag-1 -6 and OX1R antag-2 18.
`Cc1onc(-c2ccccc2Cl)c1C(=O)NCc1ccccc1` gave OX1R antag-1 -20 and OX1R antag-2 19.
Cc1cc(C)cc(N(CC(=O)N2CCC(C)CC2)S(=O)(=O)c2ccccc2)c1 was read as OX1R antag-1 -40 and OX1R antag-2 25.
Screening CCC(=O)Nc1ccc(OCc2nnc3c4ccccc4c(C)nn23)cc1 returned OX1R antag-1 -29 and OX1R antag-2 2.
CCCOC(=O)CC1C(=O)NCCN1Cc1cc(OC)cc(OC)c1 (stereo not given) was read as OX1R antag-1 -20 and OX1R antag-2 14.
For CCc1nnc(NC(=O)c2cc(-c3ccncc3)nc3ccccc23)s1 the results were OX1R antag-1 -35 and OX1R antag-2 5.
For O=C(O)C1CCN(C(=O)NC2CCCCC2)CC1 the results were OX1R antag-1 -1 and OX1R antag-2 16.
CC(SCc1ccccc1)C(=O)NC1CCCC1 (stereo not given) was read as OX1R antag-1 -7 and OX1R antag-2 8.
`C(=Nc1ccc(Nc2ccccc2)cc1)c1ccc2ccccc2c1` gave OX1R antag-1 -6 and OX1R antag-2 15.
O=C(CSc1nnc(-c2ccncc2)o1)N1CCCC1 was read as OX1R antag-1 -21 and OX1R antag-2 23.
`C/C(=N/NC(=O)c1ccncc1)c1ccc(NC(=O)c2ccc(Cl)cc2Cl)cc1` gave OX1R antag-1 -15 and OX1R antag-2 31.
O=S(=O)(NCCN1CCCC1)c1ccc(Br)cc1 was read as OX1R antag-1 -17 and OX1R antag-2 25.
CCCc1cc(=O)[nH]c(SCC(=O)c2ccc3c(c2)OCCO3)n1 was read as OX1R antag-1 -11 and OX1R antag-2 18.
For Cc1ccc(C(=O)c2cn(-c3ccc(F)c(Cl)c3)nn2)cc1 the results were OX1R antag-1 3 and OX1R antag-2 17.
For Cc1ccc(OCC(=O)NC(=S)Nc2cccc(C)n2)cc1 the results were OX1R antag-1 7 and OX1R antag-2 3.
For COc1cccc(/C=C2\SC(=S)N(CC(=O)N(C)C3CCS(=O)(=O)C3)C2=O)c1 (stereo not given) the results were OX1R antag-1 -13 and OX1R antag-2 1.
Screening Cc1cccc(-n2ccc(=O)c(C(=O)Nc3ccc(S(=O)(=O)Nc4nccs4)cc3)n2)c1 returned OX1R antag-1 -23 and OX1R antag-2 2.

Fetched by compound from the entries so far (2):
`C/C(=N/NC(=O)c1ccncc1)c1ccc(NC(=O)c2ccc(Cl)cc2Cl)cc1` gave OX1R antag-1 -15 and OX1R antag-2 31.
For COc1cccc(/C=C2\SC(=S)N(CC(=O)N(C)C3CCS(=O)(=O)C3)C2=O)c1 (stereo not given) the results were OX1R antag-1 -13 and OX1R antag-2 1.

Remaining list, next part.
For CCOC(=O)C1(Cc2ccccc2C(F)(F)F)CCN(C(C)CSC)CC1 (stereo not given) the results were OX1R antag-1 -21 and OX1R antag-2 7.
`O=C(NCc1ccc(F)cc1)C1CCCN1C(=O)Nc1cccc(F)c1` (stereo not given) gave OX1R antag-1 -22 and OX1R antag-2 27.
`O=S(=O)(c1ccccc1)N1CCN(S(=O)(=O)c2ccccc2)C1` gave OX1R antag-1 -4 and OX1R antag-2 15.
For O=C(O)CCCCOn1ccnc1 the results were OX1R antag-1 7 and OX1R antag-2 15.
COc1cc(NC(=O)CCc2c(C)nn(-c3ccc(N4CCOCC4)nn3)c2C)cc(OC)c1OC was read as OX1R antag-1 -22 and OX1R antag-2 -4.
Screening Cc1ccc(N(CC(=O)NCc2ccc(F)cc2)C(=O)c2ccco2)cc1C returned OX1R antag-1 -37 and OX1R antag-2 17.
`CN1CCN(/N=C/c2nc(-c3ccccc3Cl)n3ccccc23)CC1` gave OX1R antag-1 3 and OX1R antag-2 30.
For COc1ccc(N(C(=O)c2snc(C(N)=O)c2N)C(C(=O)NC2CCCC2)c2cccs2)cc1OC (stereo not given) the results were OX1R antag-1 -11 and OX1R antag-2 4.
For COCCOC(=O)C1=C(C)NC(C)=C(C(=O)OC(C)C)C1c1cccc([N+](=O)[O-])c1 (stereo not given) the results were OX1R antag-1 -26 and OX1R antag-2 19.
Screening Brc1csc(C=Nc2ccc3c(c2)OCCOCCOCCOCCO3)c1 returned OX1R antag-1 -10 and OX1R antag-2 47.
Screening CC(=O)Nc1nnc(SCC(=O)NCCOc2ccccc2)s1 returned OX1R antag-1 -10 and OX1R antag-2 27.
`COc1cccc(NC(=O)CN(c2cccc(F)c2)S(C)(=O)=O)c1` gave OX1R antag-1 16 and OX1R antag-2 10.
NS(=O)(=O)c1ccc(CCNCC(=O)N2CCC(Cc3ccccc3)CC2)cc1 was read as OX1R antag-1 -21 and OX1R antag-2 -1.
COC(=O)c1ccccc1NC(=O)CN1CCCCC1 was read as OX1R antag-1 -5 and OX1R antag-2 1.
O=c1cc(CSc2ccccc2)[nH]c(=S)[nH]1 was read as OX1R antag-1 -20 and OX1R antag-2 18.
Screening COc1ccc(/C=C2\SC(=Nc3ccccc3OC)NC2=O)cc1 returned OX1R antag-1 -28 and OX1R antag-2 1.
`C=CCN(C(=O)CNS(=O)(=O)c1ccccc1)C(C(=O)NCCOC)c1cccnc1` (stereo not given) gave OX1R antag-1 -4 and OX1R antag-2 29.
Screening Cc1ccc(OCC(=O)N2CCN(C(=O)c3ccco3)CC2)cc1 returned OX1R antag-1 -17 and OX1R antag-2 9.
Screening Cc1cc(NC(=O)CCC2COc3ccccc3O2)no1 (stereo not given) returned OX1R antag-1 -5 and OX1R antag-2 4.
`CCOC(=O)C1=C(CSc2n[nH]c(N)n2)NC(=O)NC1C` (stereo not given) gave OX1R antag-1 -4 and OX1R antag-2 9.
For O=C(NCc1ccccc1)N(Cc1nc2ccccc2c(=O)[nH]1)C1CCCC1 the results were OX1R antag-1 -39 and OX1R antag-2 8.
Cc1cc(C)n(C(=O)/C=C/c2cccs2)n1 was read as OX1R antag-1 -8 and OX1R antag-2 2.
`O=C(COc1ccc(Br)cc1Cl)Nn1cnnc1` gave OX1R antag-1 4 and OX1R antag-2 14.
For COc1ccc(Cc2nc(N)nc(N)n2)cc1 the results were OX1R antag-1 -1 and OX1R antag-2 14.
Screening O=c1oc(/C=C/c2ccco2)nc2sc3c(c12)CCC3 returned OX1R antag-1 -17 and OX1R antag-2 16.
CN1CCN(C(=O)c2cc(Br)cn2C)CC1 was read as OX1R antag-1 -5 and OX1R antag-2 -3.
Cc1c(NC(=O)CN2C(=O)NC3(CCCCC3)C2=O)c(=O)n(-c2ccccc2)n1C was read as OX1R antag-1 -14 and OX1R antag-2 12.
`CCOc1ccccc1NC(=O)CCc1ccc(C)o1` gave OX1R antag-1 -36 and OX1R antag-2 21.
For CCOc1ccc(-n2cc(-c3ccccc3)c3c(SC(C)C(=O)OC)ncnc32)cc1 (stereo not given) the results were OX1R antag-1 -42 and OX1R antag-2 22.
For Cc1ccc(CNC(=O)c2ccc3c(=O)c(O)c(-c4ccc(C)cc4)[nH]c3c2)cc1 the results were OX1R antag-1 -3 and OX1R antag-2 7.
Screening CS(=O)(=O)c1ccc(Cl)c(NC(=O)CCc2ccccc2)c1 returned OX1R antag-1 -28 and OX1R antag-2 21.
Screening Nc1cc(=O)[nH]c(SCC(=O)Nc2ccc(F)c(Cl)c2)n1 returned OX1R antag-1 6 and OX1R antag-2 7.
`O=C(Nc1cccnc1)C(Cc1ccccc1)n1cccc1` (stereo not given) gave OX1R antag-1 -7 and OX1R antag-2 2.
For CC(=O)Nc1ccc(/C=N/NS(=O)(=O)c2cc(C)ccc2C)cc1 the results were OX1R antag-1 -3 and OX1R antag-2 24.
Screening COC1CCCN(C(=O)c2cccc(OC3CCN(S(C)(=O)=O)CC3)c2)C1 (stereo not given) returned OX1R antag-1 -24 and OX1R antag-2 8.
COc1ccc(NS(=O)(=O)c2cc(NC(=O)c3cnc(C)cn3)ccc2N2CCCC2)cc1 was read as OX1R antag-1 -24 and OX1R antag-2 16.
For Cc1snc(SCc2ccc(F)cc2)c1C#N the results were OX1R antag-1 -27 and OX1R antag-2 19.
For N#Cc1c(-n2ccnc2)cccc1-n1ccnc1 the results were OX1R antag-1 -15 and OX1R antag-2 13.
CC1(C)OC2OC(COC(=O)c3ccc([N+](=O)[O-])cc3)C3OC(C)(C)OC3C2O1 (stereo not given) was read as OX1R antag-1 -1 and OX1R antag-2 39.
`Cc1ccc2c(c1)CCCN2C(=O)NC1CCCCC1` gave OX1R antag-1 2 and OX1R antag-2 14.
`COc1ccc(CN(Cc2cc3cc(OC)c(OC)cc3[nH]c2=O)C(=O)NC2CCCCC2)cc1` gave OX1R antag-1 -18 and OX1R antag-2 10.
For COc1cc(OC)cc(C(=O)NC2CCN(Cc3nnnn3Cc3ccc(F)cc3)CC2)c1 the results were OX1R antag-1 -17 and OX1R antag-2 9.
For CCCC(=O)N(Cc1cc(=O)[nH]c2ccccc12)c1cccc(C)c1 the results were OX1R antag-1 -13 and OX1R antag-2 -4.
`CCOC(=O)C(Cc1ccccc1)NC(=O)CCc1c(C)nc2nc(C)nn2c1C` (stereo not given) gave OX1R antag-1 -36 and OX1R antag-2 23.
COc1ccc(NC(=O)C2CCCN(S(C)(=O)=O)C2)cc1OC (stereo not given) was read as OX1R antag-1 8 and OX1R antag-2 7.
Screening O=C(Nc1c(Cl)ccc2nsnc12)c1cccnc1 returned OX1R antag-1 -20 and OX1R antag-2 39.
COc1ccc(NC(=S)N(CCc2c(C)[nH]c3ccccc23)Cc2ccco2)cc1 was read as OX1R antag-1 -9 and OX1R antag-2 8.
`CCOc1ccccc1NC(=O)Cn1c(=O)c(OCC)nc2cnccc21` gave OX1R antag-1 -18 and OX1R antag-2 0.
Screening CCOC(=O)N1CCN(S(=O)(=O)c2ccc(OCC)c3ccccc23)CC1 returned OX1R antag-1 -12 and OX1R antag-2 22.
CCOC(=O)c1c(NC(=O)CSc2nnnn2-c2ccccc2OCC)sc2c1CC(C)(C)NC2(C)C was read as OX1R antag-1 -17 and OX1R antag-2 14.
OCC[C@@H]1C[C@H](O)[C@@H](O)[C@]2(CCCO2)O1 was read as OX1R antag-1 -11 and OX1R antag-2 12.
O=C1CN(C(=O)c2ccccc2)C(c2ccc(F)cc2)c2cc(Br)ccc2N1 (stereo not given) was read as OX1R antag-1 -51 and OX1R antag-2 2.
`O=C(CC1NCCNC1=O)Nc1ccccc1` (stereo not given) gave OX1R antag-1 3 and OX1R antag-2 18.
Screening Cc1cc(CN2C(=O)c3ccccc3C2=O)cc(N2CCOCC2)c1 returned OX1R antag-1 -16 and OX1R antag-2 6.
`O=C(COC(=O)C1(c2cccc(F)c2)CCCC1)NCc1cccs1` gave OX1R antag-1 -29 and OX1R antag-2 19.
`Cc1cc(Cl)c2oc(C(=O)NCCN3CCOC3=O)c(C)c2c1` gave OX1R antag-1 -26 and OX1R antag-2 10.
